Source: PubChem
ClpP mod: qHTS Assay for Activators of ClpP; ATP-dependent Clp protease proteolytic subunit (Bacillus subtilis (strain 168)), P80244; purified B. subtilis ClpP, FRET peptide cleavage, 20 min; Potency, µM (highest dose often 57.5 µM), for the others: at the highest dose activity change, negative = active; hit rate 1.9% among 340,000; active = well fitted falling curve with a large enough effect; inconclusive = small, poorly fitted or top-dose-only effect; inactive = no such curve, though single readings can be large or run the other way; note: potency is the fitted concentration of half-maximal effect; the source files actives as falling curves though it sought activators and does not explain the sign; nearly all actives have a fitted effect of over 65% in size; many hits overshoot -100%
Target sequence (P80244 whole entry, looked up): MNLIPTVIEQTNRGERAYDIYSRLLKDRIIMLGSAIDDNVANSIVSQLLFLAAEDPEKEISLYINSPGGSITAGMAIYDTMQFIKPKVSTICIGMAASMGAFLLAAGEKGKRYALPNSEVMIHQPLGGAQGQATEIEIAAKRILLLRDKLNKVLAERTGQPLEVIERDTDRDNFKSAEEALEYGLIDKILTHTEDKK
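Buffer: 100 mM Tris/HCl pH8, 100 mM KCl, 0.05% low protease BSA, 2.5% glycerol, 0.01% Tween-20. ClpP 10 microg/mL final; 20 min RT; delta FRET normalized to ADEP and DMSO controls.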
TRPML1 blocker: qHTS for Inhibitors of the Human Mucolipin Transient Receptor Potential 1 (TRPML1); Mucolipin-1 (Homo sapiens), Q9GZU1; TRPML1-inducible cells, Ca2+ dye fluorescence, FDSS; stronger effect = lower value; inhibition of EC80 agonist-evoked calcium signal; activity change, negative = inhibition, % (no concentration beside the values); hit rate 0.02% among 390,000; in the data active means activity change below about -50%; inconclusive means about -30% to -50%; inactive means above about -30%;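 note: stimulus is agonist 54-4 at its EC80 concentration; % is set by controls: 0 for no effect and ±100 for the full control effect; compound concentration not given in the record; the text of the record puts the active cut at -80%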
Target sequence (Q9GZU1 whole entry, looked up): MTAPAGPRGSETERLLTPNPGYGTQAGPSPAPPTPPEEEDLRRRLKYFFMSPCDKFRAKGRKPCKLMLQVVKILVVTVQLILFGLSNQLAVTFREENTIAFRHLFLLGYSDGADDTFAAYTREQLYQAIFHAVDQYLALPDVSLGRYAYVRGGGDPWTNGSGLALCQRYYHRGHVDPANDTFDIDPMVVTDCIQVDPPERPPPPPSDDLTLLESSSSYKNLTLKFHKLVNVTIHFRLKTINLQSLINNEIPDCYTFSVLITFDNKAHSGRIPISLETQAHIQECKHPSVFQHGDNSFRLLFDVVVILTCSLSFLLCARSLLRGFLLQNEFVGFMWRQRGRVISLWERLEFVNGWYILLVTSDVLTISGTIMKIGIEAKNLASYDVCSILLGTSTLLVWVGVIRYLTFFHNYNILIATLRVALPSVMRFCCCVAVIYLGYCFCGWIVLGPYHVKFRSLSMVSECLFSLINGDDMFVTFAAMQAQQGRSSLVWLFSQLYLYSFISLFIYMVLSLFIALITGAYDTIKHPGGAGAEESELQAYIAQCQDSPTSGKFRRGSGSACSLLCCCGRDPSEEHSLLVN
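TRPML1-DL cells, Tet-induced overnight (~16 h, 37 °C) at 1,500 cells/well, were loaded with Ca8 no-wash dye plus quencher for 45-90 min at room temperature. Compounds were pinned during FDSS kinetic reading; agonist 54-4 at EC80 (4 uM final) then added.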
* hit, by the source's call; ? = inconclusive.

SMILES	ClpP mod	TRPML1 blocker
CSc1ccc(CCNC(=O)c2cc3cc(S(=O)(=O)N4CCCCC4)ccc3n2C)cc1	22.4µM*	17.9
O=C(Nc1ccc(Cl)cc1)c1csc(COCCO)n1	0.2%	10.9
Cc1cccc(S(=O)(=O)NC(=O)C2(C)CCN2C(=O)Cc2cccs2)c1 (stereo not drawn)	-2.4%	-15.6
COc1ccc(C)cc1NC(=O)CC(=O)Nc1ccc2nc3n(c(=O)c2c1)CCCCC3	-6.3%	69.5
O=S(=O)(c1ccc(Br)s1)N1CCN(c2cccc(C(F)(F)F)c2)CC1	-1.2%	0.4
Cc1nc2sc(C(=O)Nc3ccc(F)cc3)c(N)c2c(-c2ccc(Br)cc2)c1C(=O)Nc1ccc(Cl)cc1	-2.6%	3.1
CCOc1ccc(NC(=O)c2cc3c(s2)-c2ccccc2OC3)cc1	-0.2%	-14.8
COc1ccc(-c2nc3ccccc3o2)cc1NC(=O)COc1c(C)cc(Cl)cc1Cl	-12.5%	4.5
COc1ccc(OC)c(CCNC(=O)C2=C(C)C(=O)OC23CCC(C)CC3)c1 (stereo not drawn)	0.7%	-12.7
CN(C(=O)CSc1nc2c(c(=O)[nH]1)CCCC2)c1ccccc1	-1.4%	20.6
CCCCNC(=O)Cn1ncc2c(C)n(Cc3cccc(Cl)c3)c(C)c2c1=O	-2.1%	-10.0
COc1ccc(-c2n[nH]c3c2cnc2ccc(F)cc23)cc1	-3.7%	-6.9
Fc1ccc(Cn2c(-c3cccc(Br)c3)nc3ccccc32)cc1	?	60.8
CCc1ccc(NC(=O)Cn2c(=O)c3cc(Cl)ccc3n3nncc23)cc1	-1.3%	-10.0
CCOC(=O)c1c(NC(=O)c2ccc(S(=O)(=O)N3CCC(C)CC3)cc2)sc2c1CCN(C(C)C)C2	66.7%	12.2
COc1cc(C2C(C(=O)OC(C)C)=C(C)N=C3SCCC(=O)N32)ccc1OCc1ccccc1 (stereo not drawn)	-9.2%	-1.4
CC1CCN(C(=O)C2COc3ccccc3C2)CC1 (stereo not drawn)	-2.0%	9.7
COc1ccc(Cn2c(CO)cnc2SCC(=O)NCc2ccco2)cc1	-1.4%	3.6
CCOc1ccc(NC(=O)c2c(NCc3sccc3C)sc3c2CCCCC3)cc1	-2.2%	0.2
CCCc1ccc(S(=O)(=O)N2CCC(c3nnnn3-c3ccc(OC)cc3)CC2)cc1	-0.8%	-3.1

SMILES	ClpP mod	TRPML1 blocker
CCOC(=O)C1CCCN(S(=O)(=O)c2cc3c4c(c2)CC(=O)N4CCC3)C1 (stereo not drawn)	0.8%	-10.2
COc1ccc(CCNC(=O)c2ccc3c(c2)N(Cc2ccccc2Cl)C(=O)c2ccccc2S3)cc1OC	-3.2%	8.6
CCOc1ccccc1NC(=O)C1CCN(S(=O)(=O)Cc2ccccc2)CC1	-0.2%	-21.3
CCNC(=O)C1(C)CCN(Cc2ccccc2C#N)C1 (stereo not drawn)	-1.8%	14.5
Cc1cccc(-c2nc3c4ccccc4nc(N4CCN(c5cc(C)ccc5C)CC4)n3n2)c1	0.2%	-2.7
CSc1oc(-c2cccs2)nc1S(=O)(=O)c1ccc(Br)cc1	?	30.8
Cc1ccc(-n2c(=O)c3c(C)c(C(=O)N(C)C)sc3n(CC(=O)C(C)(C)C)c2=O)cc1C	0.6%	8.2
CCOC(=O)c1ccc(N2CCN(c3ccccc3OC)CC2)c(NC(=O)Nc2ccc(CC)cc2)c1	1.1%	77.1
Cc1ccc2c(=O)cc(C(=O)Nc3ccc(S(=O)(=O)Nc4nc(C)cc(C)n4)cc3)oc2c1	2.9%	-6.7
Cc1ccc2c(c1)-c1c(c(C(=O)N3CCN(c4cc(C)ccc4C)CC3)nn1C)CS2	-0.7%	-20.2
COc1ccc(CCNC(=O)c2ccc3c(c2)N(Cc2cccc(Cl)c2)C(=O)CS3)cc1OC	-14.5%	-12.7
COc1cccc(N2CCN(C(=O)C3CCN(S(=O)(=O)c4cn(C)cn4)CC3)CC2)c1	-0.7%	-8.3
COc1ccc(-c2cc(C(F)(F)F)n3nc(C(=O)Nc4cc(C(F)(F)F)ccc4Cl)cc3n2)cc1OC	-0.1%	0.9
O=C(CN1CCOCC1)NN=Cc1ccc([N+](=O)[O-])o1	-1.1%	-19.7
COc1ccc(NC(=O)C2CCN(S(=O)(=O)c3cn(C)cn3)CC2)cc1Cl	0.2%	-15.8
CCc1ccc(OCC(=O)Nc2ccc3c(c2)c2ccccc2n3CC)c(Br)c1	-9.4%	-14.8
Cc1ccc(S(=O)(=O)C(CNS(=O)(=O)c2ccc(F)c(C(F)(F)F)c2)c2ccco2)cc1 (stereo not drawn)	4.3%	44.8
Cc1c(C(=O)N2CCCC2)oc2c1-c1nn(CC(=O)NCc3cccc(F)c3)cc1CC2	4.8%	4.0
CCOc1ccccc1NC(=O)Cn1nnc(C(=O)Nc2ccc(C)c(C)c2)c1N	87.1%	25.2
O=C(CS(=O)(=O)c1nc(-c2ccc(Cl)cc2)cn1-c1ccccc1)Nc1cccc(Cl)c1	-4.8%	0.3

SMILES	ClpP mod	TRPML1 blocker
CCc1ccc(S(=O)(=O)c2cn(Cc3ccc(OC)cc3)c3cc(OC)c(OC)cc3c2=O)cc1	?	-4.4
COc1ccc(C)cc1NC(=O)CCn1nc(C)cc1C	0.9%	-6.4
COc1ccc(NC(=O)c2cc3c(=O)n(Cc4cccnc4)ccc3nc2C)cc1OC	-9.0%	-6.5
O=C(Cn1c(-c2cccs2)cc2cc(Cl)ccc21)N1CCN(c2ccccc2F)CC1	12.6µM*	9.9
CCN(C(=O)C1CCCN(c2ncnc3c2nc2n3CCCCC2)C1)c1cccc(C)c1 (stereo not drawn)	-0.9%	-1.0
Cc1ccc(CCNC(=O)c2cc3c(=O)n(C)c4ccccc4c3n2C)cc1	-26.1%	-5.2
CN1CCN(c2cc(CNC[C@H]3O[C@@H](n4cnc5c(=O)[nH]c(N)nc54)[C@H](O)[C@@H]3O)ccc2F)CC1	-0.2%	3.2
COc1cc(Cl)c(C)cc1NC(=O)CCc1nc2cccnc2n1Cc1cccs1	-9.6%	36.9
COc1ccc(-c2[nH]c(-c3ccc(F)cc3)nc2SCC(=O)Nc2ccc(OC)c(OC)c2)cc1	-11.6%	9.3
CC(C)Oc1ccc(CNC(=O)CN2C(=O)c3cccnc3Oc3ccc(Cl)cc32)cc1	-2.8%	?
O=C(Cn1cc(S(=O)(=O)Cc2cccc(Cl)c2)c2ccccc21)NCc1ccccc1Cl	-2.6%	3.6
CCN(C(=O)CCS(=O)(=O)c1ccc2c(c1)CCN2C(C)=O)c1cccc(C(F)(F)F)c1	-0.4%	-2.9
Cc1cccc(N(C)C(=O)c2cc3c(=O)oc4ccc(C)cc4c3s2)c1	-3.6%	-2.4
CCOc1ccc(N2CC(NC(=O)CCc3ccccc3)CC2=O)cc1 (stereo not drawn)	-1.7%	2.7
CCOC(=O)c1cc(-c2ccccc2)n(-c2cccc(C(=O)Nc3ccc(F)c(F)c3)c2)c1C	?	11.5
COc1cc(OC)cc(C(=O)N2CCC(c3ccncc3)CC2)c1	-2.0%	15.4
Cc1ccc(-n2nc(C(=O)N3CCN(c4cc(Cl)ccc4C)CC3)c3c4ccccc4n(C)c3c2=O)cc1	-0.3%	-14.4
CCN1C(=O)[C@@H]2[C@@H]3CN(S(=O)(=O)c4ccccc4C)[C@@H](c4ccc(Cl)cc4)[C@@H]3C(=O)C[C@@H]2C1=O	-2.0%	-1.0
Cc1ccc(N2CC(NC(=O)Cc3cccs3)CC2=O)cc1C (stereo not drawn)	1.0%	-25.3
COc1cc(C(=O)Nc2ccc3nc(SCc4ccccc4)sc3c2)cc(OC)c1OC	?	9.5

SMILES	ClpP mod	TRPML1 blocker
CCC(C)NC(=O)CCCn1c(=O)c2cccn2c2ccccc21 (stereo not drawn)	-4.7%	-5.9
O=C(NCc1ccc(F)cc1)C(=O)NCC(c1ccco1)S(=O)(=O)c1cccs1 (stereo not drawn)	0.2%	19.2
CC(=O)N1CCCc2cc(S(=O)(=O)N(C)CC(=O)Nc3ccc(C(C)C)cc3)ccc21	-0.9%	-8.1
CCn1ccc2cc(S(=O)(=O)N3CCCN(C(=O)Nc4ccccc4OC)CC3)ccc21	-7.8%	-3.7
CCCCCOC(=O)CSc1nc2sc3c(c2c(=O)n1Cc1ccccc1)CC(C)(CC)OC3 (stereo not drawn)	-8.7%	23.7
COc1ccc(-c2noc(C3CC(=O)N(c4ccc(C)c(F)c4)C3)n2)c(OC)c1 (stereo not drawn)	0.2%	3.3
COCCNC(=O)c1ccc(-n2c(-c3ccccc3)cc3c2CCC(C)C3)cc1 (stereo not drawn)	-8.8%	17.5
O=C(C1CCC(Cn2c(=O)c3sccc3n(Cc3ccccc3F)c2=O)CC1)N1CCOCC1 (stereo not drawn)	1.5%	-2.8
CCn1ccc2cc(S(=O)(=O)N3CCCN(C(=O)NCC(C)C)CC3)ccc21	-3.9%	-0.7
CC(C)c1ccc(S(=O)(=O)N2CCN(CC(=O)Nc3ccccc3C(F)(F)F)CC2)cc1	1.9%	-1.0
CCn1c(=O)c2cc(C(=O)Nc3cccc(C(F)(F)F)c3)sc2c2ccccc21	-5.1%	2.7
Cc1ccccc1C(=O)Nc1ccccc1C(=O)OCc1cc(=O)n2nc(C3CC3)sc2n1	?	-2.0
CCOc1ccc(NC(=O)c2ccc3c(=O)n4nc(Nc5ccccc5C)sc4nc3c2)cc1	2.3%	-17.4
CCCCOC(=O)c1cccc(NC(=O)c2cc3ccccc3o2)c1	?	11.5
Cc1ccc2nc(N3CCN(c4cccc(C(F)(F)F)c4)CC3)c3nnnn3c2c1	-3.0%	-11.2
COc1ccccc1NC(=O)CSC1=Nc2ccccc2N=C(c2ccc(F)cc2)C1	0.7%	23.2
O=c1c(S(=O)(=O)c2cccc(Cl)c2)cn(Cc2ccccc2)c2cc(N3CCCCC3)c(F)cc12	-14.1%	-9.7
Cc1nc(Oc2ccccc2C)c2oc3ccccc3c2n1	1.2%	-3.4
Cc1ccc(CNC(=O)c2cnc3c(-c4ccccc4)c(C)nn3c2C)o1	0.9%	-1.6
COc1ccc(C2c3c(n(C)c4ccccc34)C(=O)N2CC(=O)Nc2ccccc2Cl)cc1 (stereo not drawn)	?	13.8

SMILES	ClpP mod	TRPML1 blocker
Cc1ccc(NC(=O)CSc2nc(-c3cccs3)nc3cc(=O)[nH]n23)cc1	0.0%	-19.9
Cc1cc(OCC(=O)Nc2cc(-c3nc4ncccc4o3)ccc2C)ccc1Cl	4.3%	5.0
COCCNC(=O)C1(C)CCN(Cc2cccc(Oc3ccccc3)c2)C1 (stereo not drawn)	0.3%	18.6
O=S(=O)(Nc1cccc(C(F)(F)F)c1)c1ccc(-c2cnc(C3CC3)o2)cc1	-6.7%	-3.6
COc1ccc(NC(=O)Cn2c(=O)n(Cc3ccc(C(=O)NCc4ccccc4Cl)cc3)c(=O)c3ccccc32)cc1OC	1.2%	?
Cc1ccc(C)c(Cn2c(=O)n(-c3ccc(Cl)cc3)c(=O)c3c4c(sc32)CCC4)c1	1.5%	-15.5
CC(C)C(=O)NCC1(N(C)C)CCCCC1	-2.9%	17.9
Cc1ccccc1NC(=O)Cn1c(=O)n(CCc2ccccc2)c(=O)c2ccccc21	-2.8%	-6.8
O=S(=O)(c1ccccc1)c1nc(-c2ccc(Cl)cc2Cl)oc1N1CCCCCC1	?	-11.7
CC(=O)C1=C(c2ccc(Cl)c(Cl)c2)N(C(C)=O)n2c(nnc2-c2ccccc2)S1	-1.6%	-8.1
CCOc1ccc(-n2c(SCC(=O)N3CCCCCC3)nc3c([nH]c4ccccc43)c2=O)cc1	-5.4%	31.6
O=C(Cn1cc(SCc2ccc(F)cc2)c2ccccc21)N1CCCCCC1	-1.2%	4.7
Cc1cc(Cl)ccc1NC(=O)C1CCN(c2nnc(-n3c(C)ccc3C)s2)CC1	4.2%	-0.8
CCOc1ccccc1C(=O)N1CCN(CCc2ccccn2)CC1	0.3%	-15.9
CCn1cc2c(n1)-c1c(oc(C(=O)Nc3cccc(C(F)(F)F)c3)c1C)CC2	35.5µM*	30.5
CC(C)NC(=O)C1(C)CCN1C/C=C/c1ccccc1 (stereo not drawn)	-0.7%	1.3

An excerpt of these results, field by field:
Cc1ccc2c(=O)cc(C(=O)Nc3ccc(S(=O)(=O)Nc4nc(C)cc(C)n4)cc3)oc2c1
  ClpP mod = 2.9% | TRPML1 blocker = -6.7

Cc1ccc2c(c1)-c1c(c(C(=O)N3CCN(c4cc(C)ccc4C)CC3)nn1C)CS2
  ClpP mod = -0.7% | TRPML1 blocker = -20.2

COc1ccc(CCNC(=O)c2ccc3c(c2)N(Cc2cccc(Cl)c2)C(=O)CS3)cc1OC
  ClpP mod = -14.5% | TRPML1 blocker = -12.7

Some of the compounds tested. The share of hits here may be higher or lower than overall.
